# FPR binder: human FPR ligand, with FPRL1 counter-screen; 24,000 tested, 0.74% active; inhibition, %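 (tested at 6.7 µM)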; AID 440; FPR-expressing cells, fluorescent ligand binding, flow cytometry;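 also: 0% = buffer wells and 100% = receptor blocker peptide wells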
# Target sequence (P21462 whole entry, looked up): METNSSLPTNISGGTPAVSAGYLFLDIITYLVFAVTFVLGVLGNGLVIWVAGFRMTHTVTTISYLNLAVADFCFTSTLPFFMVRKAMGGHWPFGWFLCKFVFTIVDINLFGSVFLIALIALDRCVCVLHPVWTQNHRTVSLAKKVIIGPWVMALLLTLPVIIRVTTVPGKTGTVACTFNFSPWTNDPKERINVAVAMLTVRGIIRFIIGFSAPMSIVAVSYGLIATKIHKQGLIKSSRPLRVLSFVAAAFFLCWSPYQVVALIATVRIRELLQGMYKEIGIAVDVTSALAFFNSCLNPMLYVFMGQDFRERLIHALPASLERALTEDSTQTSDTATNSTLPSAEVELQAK
# VCAM-1 augmentation: enhancers of VCAM-1 display on endothelial cells, imaging, high-content imaging, pooled HUVEC, TNFa stimulus (AID 457). Pooled HUVEC, TNFa-induced VCAM-1 immunofluorescence imaging; hits of this screen are not shown here. calls only. 10,000 tested, 0.2% active;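 active = a top-ranked rise in VCAM-1 staining upheld on image or statistical review; inactive = the rest, including candidates rejected on review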;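 also: compounds tested at 5 µM in the well; cells exposed to compound for 24 hours before fixing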
# FPRL1 ligand: ligands of human FPRL1, also counter-screen for FPR ligands. P25090. FPRL1-expressing cells, fluorescent ligand binding inhibition, flow cytometry. inhibition, %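 (tested at 6.7 µM)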. 24,000 tested, 0.3% active;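 also: 0% = buffer alone and 100% = receptor blocker peptide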
# Target sequence (P25090 whole entry, looked up): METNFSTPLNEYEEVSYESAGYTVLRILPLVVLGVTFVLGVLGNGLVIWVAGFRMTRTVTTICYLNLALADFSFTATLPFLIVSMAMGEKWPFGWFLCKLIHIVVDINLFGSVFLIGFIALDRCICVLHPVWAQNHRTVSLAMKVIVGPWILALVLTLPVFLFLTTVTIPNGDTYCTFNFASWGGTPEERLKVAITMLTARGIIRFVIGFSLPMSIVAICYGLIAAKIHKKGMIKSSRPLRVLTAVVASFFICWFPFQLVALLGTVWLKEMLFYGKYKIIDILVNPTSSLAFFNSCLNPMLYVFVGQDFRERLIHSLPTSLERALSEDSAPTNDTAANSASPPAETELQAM
# VCAM-1 down: inhibitors of TNFa-induced VCAM-1 surface display, cell-based, plate reader, pooled HUVEC, TNFa stimulus (AID 454) | 10,000 tested, 0.2% active | inhibition, % at 5 µM | HUVEC TNFa-induced VCAM-1 surface immunofluorescence, plate reader; numbers were filed only for top-ranked candidate wells;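 active = compound among top-ranked inhibitors of TNF-induced VCAM-1 adhesion protein staining, with the hit upheld by image or statistical review; inactive = the rest, including hits rejected on review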;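 also: 0% = TNFa with vehicle and 100% = cells without TNFa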
# VCAM-1 down imaging: inhibitors of TNFa-induced VCAM-1 surface display, imaging, high-content imaging, pooled HUVEC, TNFa stimulus (AID 456) | 10,000 tested, 0.2% active | HUVEC TNFa-induced VCAM-1 surface expression, immunofluorescence imaging; numbers were filed only for top-ranked candidate wells | inhibition, % at 5 µM; hits with a dose series show IC50 in µM;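 active = top tenth filtered wells with inhibition above zero that passed visual or statistical confirmation; inactive = the rest, including hits rejected on review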;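 also: 0% = stimulated vehicle wells and 100% = unstimulated cells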
# The depositor's hits bear a star; i = inactive; · = not tested or not shown.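 The calls were made as follows, unless noted: active = mean above 30%; inconclusive = self-fluorescent; inactive = the rest.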
SMILES,FPR binder,VCAM-1 augmentation,FPRL1 ligand,VCAM-1 down,VCAM-1 down imaging
CCOC(=O)C1CCN(C(=O)C2c3ccccc3C(=O)N(C)C2c2ccc(OC)cc2)CC1 (configuration not stated),8,·,4,·,·
O=C(NCC1CCCO1)c1nnc(Cc2ccc(F)cc2)o1 (configuration not stated),-8,·,-1,·,·
CCOC(=O)N1CCN(C(=O)c2cn(CCOC)c(=O)c3c2c2ccccc2n3C)CC1,-3,·,5,·,·
Cc1ccc(C(=O)CC(C(=O)O)c2cn(CCC#N)c3ccccc23)cc1 (configuration not stated),4,·,6,·,·
Cc1cccc(N(C)S(=O)(=O)c2ccc3[nH]cc(C(=O)N4CCOCC4)c(=O)c3c2)c1,-1,·,1,·,·
Cc1cc(C)n2cc(CSc3nnnn3-c3ccc(Cl)cc3)nc2n1,-2,i,-2,i,i
CN(C(=O)Cn1c(=O)n(CCCCC(=O)NC2CCCC2)c(=O)c2ccccc21)C1CCCCC1,2,i,-4,i,i
CCOC(=O)C1CCN(Cc2ccc(C(=O)OC)cc2)CC1,48*,i,55*,i,i
CCOc1ccc(N(CC(=O)Nc2cccc(F)c2)S(=O)(=O)c2c(C)noc2C)cc1,1,·,-4,·,·
C=C(C)CSc1nnc(-c2cccc(S(=O)(=O)N(C)C)c2)n1-c1cc(OC)ccc1OC,5,i,-5,i,i
O=C(CC1N=C2c3ccccc3N=C(SCc3ccc(Cl)cc3)N2C1=O)NCc1ccco1 (configuration not stated),6,·,0,·,·
Nc1nc(NCc2ccco2)nn1-c1ccccc1,0,i,3,i,i
CCOC(=O)C1CCN(c2nc3ccccc3nc2C(C#N)C(=O)OCCOC)CC1 (configuration not stated),-1,i,-7,i,i
Cn1cccc1Cc1nnc(SCC(=O)NCc2ccc3c(c2)OCO3)n1CCc1ccccc1,5,·,-4,·,·
CCOC(=O)CCCCNCc1ccccc1,-6,·,6,·,·
CCOC(=O)CSc1nnc(-c2nnc(SCC(=O)OCC)n2CC)n1CC,-7,·,4,·,·
COCc1cc(C)c(C#N)c(=S)[nH]1,2,·,5,·,·
CCOC(=O)c1c(C)[nH]c(C(=O)COC(=O)C2CC2C)c1C (configuration not stated),-11,i,-1,i,i
O=C(NCCN1CCN(c2ccccc2)CC1)C1CCN(S(=O)(=O)c2cccs2)CC1,2,·,-4,·,·
CCCS(=O)(=O)N1CCC(C(=O)NCCc2ccccc2)CC1,-2,·,9,·,·
COc1cc(NC(=O)Cn2ncc3c2-c2ccccc2OC3)cc(OC)c1OC,-1,·,-2,·,·
O=C(Cn1cnc2c(nnn2-c2ccc(F)cc2)c1=O)N1CCCC1,-1,·,-1,·,·
N#CC1=C(N)N(c2ccccc2C#N)C2=C(C(=O)CCC2)C1c1ccsc1 (configuration not stated),4,·,-4,·,·
O=C(Nc1ccn(C2CC(OC(=O)c3ccccc3)C(CO)O2)c(=O)n1)c1ccccc1 (configuration not stated),0,·,4,·,·
CCOC(=O)C1CCN(C(=O)Nc2ccc(NC(=O)C3CCN(C(=O)OCC)CC3)cc2)CC1,-15,·,1,·,·
CCCCC(=O)c1c(O)c2ccccc2oc1=O,1,·,-6,·,·
CCn1ncc(C2=NOC(C(=O)NCc3ccccc3)C2)c1C (configuration not stated),1,i,-1,i,i
CCCSc1nnc(N2C(=O)CC(c3ccsc3)C3=C2CCCC3=O)s1 (configuration not stated),-1,i,0,i,i
Nc1ccc2[nH]ncc2c1,0,i,-3,i,i
Cc1ccc(CNC(=O)COC(=O)c2c(C)noc2C)cc1,3,i,2,i,i

# Overlap with the part before: five compounds, then new ones.
SMILES,FPR binder,VCAM-1 augmentation,FPRL1 ligand,VCAM-1 down,VCAM-1 down imaging
CCCCC(=O)c1c(O)c2ccccc2oc1=O,1,·,-6,·,·
CCn1ncc(C2=NOC(C(=O)NCc3ccccc3)C2)c1C (configuration not stated),1,i,-1,i,i
CCCSc1nnc(N2C(=O)CC(c3ccsc3)C3=C2CCCC3=O)s1 (configuration not stated),-1,i,0,i,i
Nc1ccc2[nH]ncc2c1,0,i,-3,i,i
Cc1ccc(CNC(=O)COC(=O)c2c(C)noc2C)cc1,3,i,2,i,i
CS(=O)(=O)N(CC(=O)NCc1ccccn1)c1ccc2c(c1)OCCO2,10,i,2,i,i
COc1cccc(-c2nn(C)c3sc(C(=O)NCc4ccco4)cc23)c1,10,·,0,·,·
O=C(CCCn1c(=S)[nH]c2ccsc2c1=O)NCc1ccco1,-3,·,-3,·,·
CCCCNC(=O)c1c(C)cc(=O)oc1C,-3,i,-2,i,i
O=C(Nc1ccc(Br)cc1F)c1sccc1-n1cccc1,3,i,4,i,i
O=C(Nc1ccc(N2CCOCC2)cc1)Nc1ccc2nc(-c3ccco3)c(-c3ccco3)nc2c1,-2,i,-2,i,i
Cc1cccc2c(=O)oc(-c3ccc4c(c3)C(=O)N(CC3CCCO3)C4=O)nc12 (configuration not stated),15,i,0,i,i
CCOc1ccc(C(=O)N2CCN(C(=O)c3ccco3)CC2)cc1OCC,-4,i,-5,i,i
O=C(CCCCn1c(=O)c2ccccc2n(Cc2ccc(Cl)cc2)c1=O)NCc1ccco1,7,i,-4,i,i
COc1ccc(OC)c(C2C(C(=O)N(C)C)=C(C)Nc3nc4ccccc4n32)c1 (configuration not stated),-8,·,-4,·,·
Cc1ccc(CCNC(=O)CCNS(=O)(=O)c2ccc3c(c2)c(=O)n(C)c(=O)n3C)cc1,0,·,-11,·,·
O=C1NCCN1C(=O)c1cccc(Cl)c1,-8,·,6,·,·
COc1ccc(CN(C(=O)c2cccs2)c2nccs2)cc1OC,1,i,-2,i,i
CCn1c(CC(C)C)n[nH]c1=S,-5,·,-8,·,·
Cc1nc(N2CCOCC2)[nH]c(=O)c1CCC(C)C,0,i,-2,i,i
Oc1ccc(Cl)cc1-c1cc(-c2ccccc2)n[nH]1,-11,i,-7,i,i
COc1cc(OC)c(Nc2cc(C)nc3nc(C)nn23)cc1Cl,9,·,5,·,·
COc1ccc(-n2nc(C(=O)N3CCCCC3)c3ccccc3c2=O)cc1,0,·,-6,·,·
COc1cccc(OCC(O)CN2CCC(Cc3ccccc3)CC2)c1 (configuration not stated),0,·,-17,·,·
CC(=Nc1ccc(C)c(C)c1)C1=C(O)CCC1=O,-4,i,0,i,i
Cc1csc(NC(=O)c2ccco2)n1,15,i,-1,i,i
COC(=O)c1cc2ccccc2c(=O)s1,13,·,3,·,·
COC(=O)c1cc(-c2ccc(OC)c(OC)c2)n[nH]1,1,·,8,·,·
CN(c1ccc(OCc2nnc(-c3ccccc3)o2)cc1)S(=O)(=O)c1ccccc1,-3,i,-6,i,i
Cc1cccc(N2CCN(C(=O)CCn3c(=O)[nH]c4ccccc4c3=O)CC2)c1C,5,·,1,·,·
CCOC(=O)C1CCCN(c2c(NCC3CCCO3)c(=O)c2=O)C1 (configuration not stated),-4,·,-2,·,·
Cc1ccc(S(=O)(=O)c2c(C)nn(C(C)(C)C)c2OC(=O)C2CCCC2)cc1,2,·,12,·,·
CCn1c(=NC(=O)CSCC(=O)Nc2nccs2)sc2ccccc21,1,·,-7,·,·
COc1ccc(-c2ccc(C(=S)N3CCN(C(C)=O)CC3)o2)cc1,-1,·,-6,·,·
CCOC(=O)N1CCN(C(=O)CSc2nnc(-c3cccc(OC)c3)o2)CC1,-12,·,-2,·,·
CCOc1cc(C#N)c(NC(=O)Cn2nnc3ccccc32)cc1OCC,2,·,-5,·,·
CCOC(=O)c1c(C)c(C(=O)NCCOC)c(C)n1CC,-5,·,5,·,·
Cc1cc(C(=O)CSCc2nnc3n(CCC(C)C)c(=O)c4ccccc4n23)c(C)n1C,3,i,-5,i,i
CCCS(=O)(=O)n1nc(-c2ccc(Br)cc2)cc1N,1,·,-2,·,·
Cc1ccc(SCCNS(=O)(=O)c2ccc(F)cc2)cc1,-10,i,-4,i,i
Cc1cccn2c(=O)c3cc(C(=O)N4CCN(c5ccccc5)CC4)n(C)c3nc12,-2,·,5,·,·
Cc1cc(C)cc(-n2nnc(C(=O)NCc3ccccc3)c2N)c1,0,·,0,·,·
CCCCN(C)CCn1c(=S)[nH]c2ccc(N3CCOCC3)cc2c1=O,0,·,-4,·,·
Cn1nc(-c2ccc(Cl)cc2)c2cc(C(=O)N3CCOCC3)sc21,-2,·,-6,·,·
COc1cccc(-n2nnc3c(=O)n(CC(=O)N4CCC(C)CC4)cnc32)c1,-4,·,-3,·,·
CC1CCN(C(=O)CSc2ccc3nnc(-c4ccccc4)n3n2)CC1,0,·,-2,·,·
Cc1oc(-c2ccccc2F)nc1CS(=O)(=O)CC(=O)N1CCc2ccccc21,3,·,7,·,·
CCC(=O)c1cc(F)c(N2CCN(C(=O)c3ccco3)CC2)cc1C,0,i,2,i,i
CCC(=O)Oc1ccc(C2N(C(=O)CC)CCN2S(=O)(=O)c2ccc(C)cc2)cc1OC (configuration not stated),13,·,-2,·,·
COc1ccc(C(=O)NCc2nnc(SCC(=O)N3CCc4ccccc43)o2)cc1OC,-8,·,-7,·,·
COCCN1C(=O)c2oc3ccccc3c(=O)c2C1c1ccc(C(=O)OC)cc1 (configuration not stated),14,·,2,·,·
COc1ccc(OC)c(C2SCCN2S(=O)(=O)c2cccc(C(F)(F)F)c2)c1 (configuration not stated),-8,·,3,·,·
Oc1c(I)cc(Cl)c2cccnc12,-9,i,0,i,i
CN1CCc2c(sc3c2c(=O)n(-c2ccccc2)c2nnc(SCc4ccccc4)n32)C1,-4,i,2,i,i
O=C(CCn1c(=O)[nH]c2ccsc2c1=O)N1CC(=O)N(CCc2ccccc2)C(=O)C1,2,·,9,·,·

# Going on with the list:
SMILES,FPR binder,VCAM-1 augmentation,FPRL1 ligand,VCAM-1 down,VCAM-1 down imaging
CCc1ccc(S(=O)(=O)NCc2csc(C)n2)s1,-2,·,1,·,·
CCc1cc(=O)oc2c(CN3CCN(C)CC3)c(O)c(Cl)cc12,9,i,6,i,i
O=C(Nc1cccc(OCC(=O)N2CCOCC2)c1)C1CCCCC1,-3,i,-1,i,i
Nc1nc2n(n1)C(c1ccco1)CC(c1ccc(F)cc1)N2 (configuration not stated),-1,·,-1,·,·
CCOC(=O)c1c(C)[nH]c(C(=O)Cn2c(=O)c3c(ncn3CC)n(Cc3ccccc3)c2=O)c1C,-7,i,-4,i,i
CCOC(=O)N1CCC(N(C(=O)Nc2ccc(Cl)c(Cl)c2)C(C)CC)CC1 (configuration not stated),-2,i,-3,i,i
C=CCC(Nc1ccco1)c1ccccc1 (configuration not stated),-4,i,2,i,i
CCn1c(CCNC(=O)c2ccc(OC)c(OC)c2)nc2ccccc21,-8,i,2,i,i
CN(C(=O)c1ccco1)c1nnc(C23CC4CC(CC(C4)C2)C3)s1,-1,i,-3,i,i
COC(=O)C1=C(C)Nc2nnnn2C1c1cccs1 (configuration not stated),0,i,2,i,i
CCOC(OCC)P(=O)(C(C)C)C(C)C,-2,i,3,i,i
CC(=O)Nc1ccc(S(=O)(=O)NCc2csc(C)n2)cc1,-4,·,-7,·,·
Cc1cc(C)n(-c2nnc(C)n2NS(C)(=O)=O)n1,7,·,-2,·,·
COc1cccc(CNc2cccc3cccnc23)c1O,-4,i,6,i,i
Cc1ccc(CN2C(=O)CCC2C(=O)NCC2CCCO2)cc1 (configuration not stated),-9,i,-6,i,i
COc1ccccc1N1CCN(C(=O)CCn2c(=O)[nH]c3ccsc3c2=O)CC1,-3,·,-2,·,·
O=C(c1cccn2c(=O)c3cc(Cl)ccc3nc12)N1CCN(Cc2ccc3c(c2)OCO3)CC1,-2,·,-1,·,·
CCC1CCCCN1C(=O)CSc1nnc(-c2cccc(Cl)c2)o1 (configuration not stated),0,·,-9,·,·
COc1cccc(NC(=O)CSc2nnc(-c3ccc(C)cc3)o2)c1,-1,·,4,·,·
CCOC(=O)CC(=O)CSc1ccc2nnc(-c3ccc(F)cc3)n2n1,10,·,-5,·,·
CCCn1c(SCC(=O)NCc2ccco2)nc2c1c(=O)n(C)c(=O)n2C,0,i,0,i,i
CCOc1ccc2cc(C#N)c(SCC(=O)N3CCOCC3)nc2c1,-2,i,-4,i,i
Cn1nnnc1SCC(=O)Nc1ccccc1C(=O)NCc1ccccc1,-1,i,-2,i,i
CN(CCNS(=O)(=O)c1ccc2c(c1)oc(=O)n2C)Cc1ccccc1,-3,i,2,i,i
CCOC(=O)c1sc(NC(=O)CSc2nnnn2-c2ccccc2)c(C(=O)OCC)c1C,-1,i,2,i,i
Cc1ccc(S(=O)(=O)NCC(=O)OCC(=O)Nc2ncc(Cl)cc2Cl)cc1,-1,i,-2,i,i

# Bioassay records from PubChem.

# Only part of the results is shown; count on the stated rates, not on these rows.
